# Menin-MLL FL inh: menin-MLL binding inhibition, fluorescein peptide. FP activity change, % at 61.4 µM. 290,000 tested, under 10 active. Fluorescence polarization, fluorescein-MLL peptide displacement from menin; inconclusive = falling polarisation curve, or a change in total fluorescence; inactive = total fluorescence flat and polarisation flat or rising; no compound was filed as active; the % refers to the polarisation; negative = inhibition;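 note: % of control where 0% means no effect; inhibitors lower the polarisation; unlabelled MLL peptide was the positive control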
# gsp ag: agonists of gsp mutant (McCune-Albright syndrome); gsp mutant cells, cAMP HTRF, 30 min; control for the full effect not named in the record; Potency, µM (highest dose often 76.9 µM), for the others: at the highest dose activation (cAMP increase), actives largely listed as activators; actives 0.13% (n = 340,000); AID 624287; active = well fitted activation curve with a large enough effect; inconclusive = small, poorly fitted or top-dose-only effect, or another doubt; inactive = no such curve, though single readings can be large or run the other way; cell line not stated here;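 note: phosphodiesterase inhibitor Ro 20-1724 added with compounds to block cAMP breakdown; potency is the fitted concentration of half-maximal effect; nearly all actives have a fitted effect of over 60% in size; about a fifth of the inactives were tested at one dose only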
#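 Cells in DMEM/10% FBS with G418 were pretreated with compounds in DMSO plus […] (300 uM stock) for 30 min at 37C. cAMP was measured by HTRF (cAMP-d2 plus anti-cAMP antibody-K) after 30 min at room temperature.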
# gsp antagonist: gsp mutant antagonism; gsp-mutant cells, cAMP HTRF, 30 min; control for the full effect not named in the record; Potency, µM (series often up to 76.9 µM), for inactives: at the highest dose activity change, negative = inhibition, hits mostly inhibitors; actives 0.4% (n = 340,000); active = falling curve of any shape with a large fitted effect; inconclusive = falling curve, mostly with a smaller effect; inactive = flat or rising curve; cell line not stated here;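 note: intracellular cAMP measured with PDE inhibitor Ro 20-1724 present during compound exposure; potency is the fitted concentration of half-maximal effect; % is set by controls: 0 for no effect and ±100 for the full control effect; nearly all actives have a fitted effect of over 65% in size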
#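 G418-selected cells were plated in DMEM/10% FBS for 16-24 h at 37C, then treated with compounds plus the PDE inhibitor […] (300 uM solution added) for 30 min at 37C. Intracellular cAMP was measured by HTRF after 30 min lysis at room temperature.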
# TRPML1 blocker: blocks the human TRPML1 channel; TRPML1-inducible cells, Ca2+ dye fluorescence, FDSS; active compounds read low; inhibition of EC80 agonist-evoked calcium signal; activity change, negative = inhibition, % (no concentration beside the values); actives 0.02% (n = 390,000); AID 624415; in the data active means activity change below about -50%; inconclusive means about -30% to -50%; inactive means above about -30%;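 note: stimulus is agonist 54-4 at its EC80 concentration; % is set by controls: 0 for no effect and ±100 for the full control effect; compound concentration not given in the record; the text of the record puts the active cut at -80%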
#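 Tet-induced TRPML1-DL cells loaded with Ca8 no-wash calcium dye were read kinetically on FDSS. Compound addition was followed by EC80 agonist 54-4 (4 uM final); inhibition was read over 110 s.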
# TRPV1 potentiator: human TRPV1 potentiation; Q8NER1; TRPV1-expressing cells, Fluo-8 calcium influx, capsaicin EC20 potentiation; host cell line not named in the record; control for the full effect not named in the record; potentiation, % at 8.33 µM; actives 0.02% (n = 320,000); active means potentiation above 80%; inconclusive means 30% to 80%; inactive means below 30%; note: 0% is about no effect
# Target sequence (Q8NER1 whole entry, looked up): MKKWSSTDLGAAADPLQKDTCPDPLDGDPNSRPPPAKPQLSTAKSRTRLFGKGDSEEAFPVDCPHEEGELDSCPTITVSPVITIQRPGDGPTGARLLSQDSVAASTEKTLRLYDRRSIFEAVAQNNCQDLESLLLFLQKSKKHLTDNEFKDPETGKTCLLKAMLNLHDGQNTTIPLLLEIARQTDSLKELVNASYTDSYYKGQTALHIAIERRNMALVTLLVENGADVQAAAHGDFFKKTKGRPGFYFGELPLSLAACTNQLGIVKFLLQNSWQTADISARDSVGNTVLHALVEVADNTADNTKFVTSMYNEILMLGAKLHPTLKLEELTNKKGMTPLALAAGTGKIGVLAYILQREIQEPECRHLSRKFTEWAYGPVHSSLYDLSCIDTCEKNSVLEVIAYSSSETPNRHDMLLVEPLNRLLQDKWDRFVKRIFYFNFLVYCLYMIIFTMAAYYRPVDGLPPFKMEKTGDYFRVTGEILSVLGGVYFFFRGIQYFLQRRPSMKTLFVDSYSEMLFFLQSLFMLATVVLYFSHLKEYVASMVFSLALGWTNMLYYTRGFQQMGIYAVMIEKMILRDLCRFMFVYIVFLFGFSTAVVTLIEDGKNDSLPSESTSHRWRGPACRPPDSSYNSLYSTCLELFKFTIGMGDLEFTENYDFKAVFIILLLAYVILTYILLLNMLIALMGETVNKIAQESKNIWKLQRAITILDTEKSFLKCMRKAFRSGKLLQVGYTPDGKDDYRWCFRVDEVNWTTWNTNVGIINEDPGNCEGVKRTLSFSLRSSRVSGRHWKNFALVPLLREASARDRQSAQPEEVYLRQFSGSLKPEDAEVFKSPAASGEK
#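 Cells expressing TRPV1 were dye-loaded with Fluo-8 and read kinetically: 10 s baseline, 3 min after compound (agonist portion), then 2 min after EC20 capsaicin (allosteric enhancer portion). Calcium-bound dye fluorescence at 480/520 nm.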
# ClpP mod: qHTS Assay for Activators of ClpP. purified B. subtilis ClpP, FRET peptide cleavage, 20 min. Potency, µM (highest dose often 57.5 µM), for inactives: at the top dose activity change, negative = active. actives 1.9% (n = 340,000); active = well fitted falling curve with a large enough effect; inconclusive = small, poorly fitted or top-dose-only effect; inactive = no such curve, though single readings can be large or run the other way; note: potency is the fitted concentration of half-maximal effect; the source files actives as falling curves though it sought activators and does not explain the sign; nearly all actives have a fitted effect of over 65% in size; many hits overshoot -100%
# Target sequence (P80244 whole entry, looked up): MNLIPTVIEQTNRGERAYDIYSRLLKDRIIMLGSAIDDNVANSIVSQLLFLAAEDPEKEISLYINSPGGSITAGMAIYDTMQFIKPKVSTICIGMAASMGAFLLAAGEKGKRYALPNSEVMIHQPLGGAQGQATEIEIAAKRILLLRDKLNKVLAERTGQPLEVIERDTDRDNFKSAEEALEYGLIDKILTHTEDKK
#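 Buffer: 100 mM Tris/HCl pH8, 100 mM KCl, 0.05% low protease BSA, 2.5% glycerol, 0.01% Tween-20. ClpP 10 microg/mL final; 20 min RT; delta FRET normalized to ADEP and DMSO controls.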
# Sfp inh: inhibitors of Bacillus subtilis Sfp phosphopantetheinyl transferase. Q9F4F7. Biochemical Sfp PPTase activity, qHTS. Potency, µM, for the others: max response, negative = inhibition, actives largely listed as inhibitors. actives 3.5% (n = 310,000). AID 1490; active = well fitted inhibition curve with a large enough effect; inconclusive = small, poorly fitted or top-dose-only effect, or another doubt; inactive = no such curve, though single readings can be large or run the other way;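 note: the enzyme is Sfp with the accession as filed and its product quenches rhodamine fluorescence; potency is the fitted concentration of half-maximal effect; 0% = enzyme reaction without inhibitor and -100% = no enzyme wells; top concentration of the series not given in the record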
#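 With Hepes-Na pH 7.6 buffer containing 10 mM MgCl2, Sfp (15 nM) modified BHQ-2-YbbR (12.5 uM) using rhodamine-CoA (5 uM). Two reads 30 minutes apart at 525/598 nm yielded each well's rate.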
# An asterisk follows results filed as active; ? = inconclusive; nt = not tested or not shown; & = joins results of further samples; [ ] = remark or other dose.
SMILES,Menin-MLL FL inh,gsp ag,gsp antagonist,TRPML1 blocker,TRPV1 potentiator,ClpP mod,Sfp inh
CC(=O)Nc1ccc(NC(=O)c2ccc(C)c(S(=O)(=O)Nc3cccc(C)c3)c2)cc1,2.4,-16%,-17%,-2,3,nt,20%
O=C(Nc1cc(Cl)cc(Cl)c1)C1CCC(=O)N1Cc1ccccc1Cl (stereo not given),0.4,-33%[inhibitor],-11%,-8,6,-0.3%,18%
COc1cc(S(=O)(=O)Nc2ccc3cn[nH]c3c2)ccc1Cl,-0.2,3%,3%,32,-3,nt,-2%
COc1cc(/C=C(\C#N)C(=O)NCc2cccs2)ccc1O,?,?,0%,31,13,1.3%,-8%
CO[C@@]1(NC(=O)Cc2cccs2)C(=O)N2C(C(=O)O)=C(COC(N)=O)CS[C@@H]21,10,nt,-4%,-7,2,-4.3%,-23%
COc1ccc(N2CCN(C(=O)c3cc(=O)c4ccc(C)cc4o3)CC2)cc1,-4.2,6%,-18%,-1,20,0.1%,7%
Nc1nonc1N1CCCCC1,0.4,-28%,-1%,0,9,-2.3%,14%
CC(=O)Nc1ccc(NC(=O)CSc2nnc(-c3ccco3)n2Cc2ccco2)cc1,3.3,5%,6%,-3,17,-1.1%,12%
CC1CCN(c2ccc(S(=O)(=O)N3CCC(C)CC3)cc2N)CC1,-0.2,-22%,4%,1,-1,-17%,5%
COc1ccccc1N1CCN(S(=O)(=O)c2c(C)sc3ncn(CC(=O)NCCN(C)C)c(=O)c23)CC1,5.8,-14%,2%,35&-8,-5,0.4%,24%
Cc1ccccc1-c1nc2sc3c(c2c(=O)o1)CCC3,0.4,19%,-1%,-6,16,-0.3%,13%
CC(=O)Nc1ccc(Nc2nc3ccccc3nc2NS(=O)(=O)c2ccc(Cl)c([N+](=O)[O-])c2)cc1,nt,17%,?,-5,nt,?,nt
Cc1ccc(-c2nc(CCN3C(=O)c4ccccc4C3=O)cs2)cc1,1.6,23%,-26%,2,-4,0.6%,-3%
CCN(CC)c1ccc(S(=O)(=O)N2CCCCC2)cc1NC(=O)C1CCC1,nt,-38%[inhibitor],-19%,3,9,1.0%,nt
Cn1c(SCC(=O)N2CCN(c3ccccc3)CC2)nnc1-c1ccncc1,1.5,-32%[inhibitor],4%,-26,23,-1.1%,7%
CCCC(NC(=O)CCc1c(C)c2cc3c4c(oc3c(C)c2oc1=O)CCCC4)C(=O)O (stereo not given),-6.9,?,-17%,-4,-1,nt,0%
CCCCc1cn(C[C@H]2CC[C@@H]([C@@H]3CC[C@H](Cn4cc(CCCC)nn4)O3)O2)nn1,4.2,-5%,-2%,2,-7,-0.4%,12%
COc1ccc(NC(=O)CCN2CCN(c3ccc(F)cc3)CC2)cc1,-1.7,-13%,12%,-6,0,-5.9%,6%
Cc1cccc(CNC(=O)c2ccccc2N)c1,0.0,29%,2%,-7,-14,8.9µM*,10%
Cc1cccc(C)c1NC(=O)c1c(-c2ccccc2)noc1C,0.5,10%,-10%,-7,-12,-0.9%,9%
CC1CCCN(C2(O)C(=O)Nc3ccc(Br)cc32)C1 (stereo not given),0.3,7%,0%,-13,?,1.4%,0%
Cc1ccc(SCC(=O)OCC(=O)NC2CCCCCC2)cc1,nt,3%,8%,3,-24,-0.8%,7%
CC(C)NC(=O)C12CC3CC(C1)CC(n1cnc(Cl)n1)(C3)C2,3.0,3%,-2%,3,-1,-0.2%,17%
CCN(CC(=O)Nc1ccc(OC)cc1)C(=O)CCc1nc2ccccc2c(=O)[nH]1,nt,-27%,0%,5,13,1.0%,nt
O=C1CC(c2ccc(F)cc2)Sc2nc(-c3ccccc3)c(-c3ccccc3)n21 (stereo not given),3.4,0%,6%,22,8,?,7%
Clc1ccc2nc(N3CCCCC3)[nH]c2c1,4.4,-14%,0%,-22,-39,1.2%,-6%
COC(=O)C1CCN(CC(=O)Nc2ccc(C(=O)Nc3ccccc3OC)cc2)CC1,nt,-20%,2%,-20,5,-6.2%,nt
C[C@H](NC(=O)c1nc[nH]c1C(=O)N1CCN(C(=O)OC(C)(C)C)CC1)C(=O)OC(C)(C)C,nt,nt,4%,4,22,1.9%,nt
COC(=O)[C@]1(CC(C)C)N[C@H](c2ccc(-c3ccc(F)cc3)cc2)[C@@H]2C(=O)N(C)C(=O)[C@@H]21,nt,nt,-7%,-7,-12,-4.3%,nt
O=C(Nc1cccc(C(=O)N2CCOCC2)c1)c1cncc(Br)c1,1.5,7%,11%,-20,12,1.0%,5%
O=C(CSc1n[nH]c(=O)n1C1CC1)Nc1ccc(F)c([N+](=O)[O-])c1,nt,-1%,-5%,-2,-8,-1.5%,nt
O=C(CCN1C(=O)NC2(CCCC2)C1=O)Nc1ccc(Sc2ccc(Br)cc2)cc1,nt,1%,nt,-3,nt,0.1%,nt
COc1ccc(CCN(C)C(=O)C2CCCN(Cc3ccc(OC)c(OC)c3)C2)cc1OC (stereo not given),0.1&-4.6,-17%,4%,0,14&1,nt,-7%&12%
CN(C)CCNc1oc(-c2ccccc2Cl)nc1S(=O)(=O)c1ccccc1,nt,-100%[inhibitor],4%,-2,-3,-1.5%,nt
CCN(CC(=O)Nc1ccc(NC(C)=O)cc1)C(=O)/C=C/c1ccc(C)o1,nt,2%,-20%,-4,3,-4.4%,nt
CCOc1ccc(NC(=O)Cn2nc(-c3ccccc3Cl)n(CC)c2=S)cc1,5.4,?,-2%,-6,4,0.1%,-9%
CC(=O)Nc1ccc(S(=O)(=O)N2CCC(C(=O)c3ccc(Cl)cc3)CC2)cc1,-2.8,?,-25%,2,5,nt,-8%
CCSC(=O)NC1CCCCC1,0.3,-5%[15.4 µM],3%,6,-3,nt,14%
O=C(COC(=O)Cc1cccc(C(F)(F)F)c1)NCC1CCCO1 (stereo not given),2.1,-45%[inhibitor],-6%,1,-18,6.3%,-3%
Cc1nc(C(N)=O)nc2ccccc12,-0.6,38%,3%,0,5,1.7%,8%
O=C(OCc1ccco1)c1ccc(S(=O)(=O)N2CCCCC2)cc1,-0.2,?,5%,-9,-17,-3.5%,22µM*
O=C(OC(C(=O)NCc1ccc2c(c1)OCO2)c1ccc(Cl)cc1)c1ccco1 (stereo not given),1.2,-38%[inhibitor],-3%,-11,-8,1.1%,?
O=S(=O)(c1ccc(OCC(O)CN2CCCC2)cc1)N1CCOCC1 (stereo not given),5.6,-32%[inhibitor],-5%,23,5,-0.1%,8%
Cc1cccc(OCC(=O)Nc2nccs2)c1C,-5.1,?,8%,-6,-19,3.2%,-1%
CCOCCOC(NC(=O)c1ccccc1)(C(F)(F)F)C(F)(F)F,1.4,-9%,-1%,-28,-1,-4.4%,10%
CC(C)(C)c1ccc(-c2n[nH]c(=S)n2CC2CCCO2)cc1 (stereo not given),-2.0,-1%[15.4 µM],-12%,14,-1,nt,-27%
Cc1ccc(C)n1-n1c(C)nc2sc(-c3ccccc3)cc2c1=O,4.0,8%,?,61,-15,-4.5%,-2%
C=CCOc1ccccc1CNn1nnnc1N,1.4,3%,3%,-6,7,-0.9%,-2%
CN(C)c1ccc(-c2n[nH]c(=S)n2-c2ccccc2)cc1,-3.6,?,-17%,-10,-8,nt,-1%
CC1(C)Cc2c(c(N3CCCCC3)[nH]c(=S)c2C#N)CS1,-1.6,4%,-6%,2,0,-6.3%,2%
O=S(=O)(c1ccccc1)N1CCN(C2CCN(Cc3ccccc3)CC2)CC1,5.1,16%,4%,13,0,-4.1%,8%
CCN(C(=O)COC(=O)C1CC1)c1c(N)n(Cc2ccccc2)c(=O)[nH]c1=O,nt,5%,19%,1,-3,-2.8%,nt
CCN=C1SC(CC(N)=O)C(=O)N1CC (stereo not given),3.0,-12%[15.4 µM],11%,0,-2,nt,14%
CN(C)c1ccc(N=Nc2ccccc2C(=O)OCC(=O)NC2CCCC2)cc1,6.6,-17%,?,-3,-13,1.1%,-15%
Cc1c(C(=O)N2CCCCC2)c(S(=O)(=O)NCc2ccc(N(C)C)cc2)c(C)n1C,-8.4,?,-5%,-6&1,5,-2.0%&0.0%,11%
O=C(CCC(=O)OCc1cccc(C(=O)Oc2ccccc2)c1)Nc1cccc2ccccc12,-1.0,-23%,-18%,0,10,-17%,9%
CNC(=O)NC(=O)C(OC(=O)CCNS(=O)(=O)c1ccccc1)c1ccccc1 (stereo not given),nt,?,-8%,-5,-3,-0.7%,8%
Cc1ccc(C(=O)COc2ccc3ccc(=O)oc3c2)cc1,-2.9,8%[15.4 µM],-8%,-18,-24,nt,23%
CCNC(=O)NC(=O)COC(=O)c1cccc(S(=O)(=O)N2CC3(C)CC2CC(C)(C)C3)c1 (stereo not given),nt,-13%[15.4 µM],-2%,-17,-9,nt,nt

# Full records, quoted from the list. Screens in order: Menin-MLL FL inh | gsp ag | gsp antagonist | TRPML1 blocker | TRPV1 potentiator | ClpP mod | Sfp inh
# CCN=C1SC(CC(N)=O)C(=O)N1CC (stereo not given) is listed as 3.0 | -12%[15.4 µM] | 11% | 0 | -2 | nt | 14%
# CN(C)c1ccc(-c2n[nH]c(=S)n2-c2ccccc2)cc1 is listed as -3.6 | ? | -17% | -10 | -8 | nt | -1%
# CCNC(=O)NC(=O)COC(=O)c1cccc(S(=O)(=O)N2CC3(C)CC2CC(C)(C)C3)c1 (stereo not given) is listed as nt | -13%[15.4 µM] | -2% | -17 | -9 | nt | nt
# CCN(C(=O)COC(=O)C1CC1)c1c(N)n(Cc2ccccc2)c(=O)[nH]c1=O is listed as nt | 5% | 19% | 1 | -3 | -2.8% | nt
# Cc1c(C(=O)N2CCCCC2)c(S(=O)(=O)NCc2ccc(N(C)C)cc2)c(C)n1C is listed as -8.4 | ? | -5% | -6&1 | 5 | -2.0%&0.0% | 11%

# Assay outcomes (PubChem)
